Screening results: PubChem BioAssay, National Center for Advancing Translational Sciences (NCATS)
PK Bst: pyruvate kinase (B. stearothermophilus) modulation; partly purified Bacillus stearothermophilus pyruvate kinase, luminescence ATP production; ribose 5-phosphate activator present at AC10; 1.2% of 51,000 active; AID 361; Potency, µM; in the data active means potency below about 11 µM; inconclusive means mostly about 12 µM to 25 µM; inactive means weaker than that;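 the screen sought inhibitors and activators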;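 note: potency is the fitted concentration of half-maximal effect; scaled between full activation by ribose 5 phosphate and full inhibition by luteolin; about four in five hits inhibit and the cells do not say which; series up to 57 µM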
YjeE inh: YjeE (TsaE) inhibition, E. coli; P0AF67; purified YjeE, fluorescence polarisation of a bound ADP probe; Potency, µM; 0.05% of 71,000 active; AID 605; active = well fitted falling curve; inconclusive = weaker or top-dose-only fall, or a rising curve; inactive = flat or poorly fitted curve;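 note: top concentration of the series not given in the record; excess ADP was the control for the full effect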
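Purified YjeE (10 uM) with BODIPY Texas Red-labeled ADP probe (2 uM); compounds pin-transferred, 15 min at room temperature. Binding inhibition read as decreased fluorescence polarization; ADP titration as control.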
An asterisk follows results filed as active; i = inactive; ? = inconclusive; . = no result given.

SMILES	PK Bst	YjeE inh
S=C(c1ccc(N2CCOCC2)cc1)N1CCCCC1	>57	i
CCCC1CCC(C(=O)Nn2c(C)nc3ccccc3c2=O)CC1 (stereo not given)	>57	i
CCCCN1CCC[C@@H]1CNC(=O)c1cc(C#N)c2ccccc2c1OC	.	i
Cc1ccc(-n2ncc3c(=O)[nH]c(SCC(=O)N4CCCC4)nc32)cc1C	.	i
CCOC(=O)c1cccc(NC2c3ccccc3C(=O)N2Cc2ccco2)c1 (stereo not given)	.	i
Cc1nn(Cc2ccccc2Cl)c(C)c1N	>57	i
COc1cc2[nH]c(=S)n(CC3CCCO3)c(=O)c2cc1OC (stereo not given)	>57	i
O=C(CSc1nnc(-c2ccc(S(=O)(=O)N3CCOCC3)cc2)o1)c1ccccc1F	>57	i
O=C(CN1CCN(C(=O)c2ccco2)CC1)Nc1ccc(Cl)c(C(F)(F)F)c1	>57	i
CCOP(=O)(c1ccc(N(C)C)cc1)C(O)c1ccc(Cl)cc1 (stereo not given)	>57	i
O=C(CN1C(=O)c2cccc3cccc1c23)N1CCN(c2cccc(Cl)c2)CC1	>57	i
Cn1c(Cn2c(=O)sc3ccccc32)nnc1SCC(=O)NCC1CCCO1 (stereo not given)	.	i
COc1cc(C2c3c(-c4cc(C)cc(C)c4O)n[nH]c3C(=O)N2CCCO)cc(OC)c1OC (stereo not given)	>57	i
NCCCCCc1nnc(SC/C=C/c2ccccc2)o1	>57	i
Cc1ccc(Cl)cc1N(CC(=O)N1CCCCCC1)S(C)(=O)=O	.	i
COc1ccccc1NC(=O)CSc1nnc(Cc2cc(=O)[nH]c(=O)[nH]2)n1-c1ccccc1	>57	i
CN1[C@@H]2CC[C@H]1CC(OC(=O)c1c[nH]c3ccccc13)C2 (stereo not given in full)	.	i
COc1ccc(NC(=O)N(Cc2cc3cc(OC)ccc3[nH]c2=O)CC2CCCO2)cc1 (stereo not given)	i	i
COc1ccc(Oc2ncc3nc(-c4ccc(Cl)cc4)c(=O)n(CCC#N)c3n2)cc1	.	i
CCC(OC(=O)CC1Sc2ccccc2NC1=O)C(=O)NCC1CCCO1 (stereo not given)	>57	i
CCOC(=O)C1=C(CSc2nc(C)ccc2C#N)OC(N)=C(C#N)C1c1cccc(OC)c1OC (stereo not given)	>57	i
Cc1cc(=O)[nH]c(N2CCN(Cc3ccccc3)CC2)n1	>57	i
O=C(NCc1ccccc1)NC1CCCCC1	>57	i
COC(=O)c1cc(-c2ccc(OC)c(OC)c2)on1	.	i
CC1Cc2nc(SCC(=O)Nc3ccc4c(c3)OCO4)n(Cc3ccccc3)c(=O)c2S1 (stereo not given)	>57	i

Two entries picked at random from the list so far:
SMILES	PK Bst	YjeE inh
COc1ccc(Oc2ncc3nc(-c4ccc(Cl)cc4)c(=O)n(CCC#N)c3n2)cc1	.	i
Cn1c(Cn2c(=O)sc3ccccc32)nnc1SCC(=O)NCC1CCCO1 (stereo not given)	.	i

Next part:
SMILES	PK Bst	YjeE inh
Cc1cc2nncn2c(Cc2ccccc2)n1	>26	.
CCOC(=O)C1CCN(Cc2ccc(OC)c(C)c2OC)CC1	.	i
CCn1c(=O)cc(OCC(=O)NCc2ccc(C)o2)c2ccccc21	>57	i
COC(=O)[C@@]1(Cc2ccc(OC)cc2)[C@H]2c3cc(C(=O)N(C)C)n(C)c3C[C@H]2CN1C(=O)c1ccccc1	.	i
COc1ccc(NC(=O)CCCCC#Cc2ccccc2)cc1	.	i
C1CCN=C(Nc2nn[nH]n2)CC1	>57	i
Cn1c(=O)c2[nH]c(CCNC(=O)c3ccccc3)nc2n(C)c1=O	.	i
COc1ccccc1NC(=O)CN1CCN(CC(=O)Nc2ccc(Cl)c(C(F)(F)F)c2)CC1	>57	i
CCN(CCNC(=O)Nc1ccc(Cl)cc1)c1ccccc1	>57	i
CCOc1ccc(S(=O)(=O)N(C)c2ccc(OCC(=O)Nc3ccc4[nH]c(=O)[nH]c4c3)cc2)cc1	>57	i
O=C(Cn1cnc2ccccc2c1=O)Nc1ccc(-c2nnc3n2CCCCC3)cc1	>57	i
COc1ccc2c(c1)N1CCN=C1N2C	>57	i
Cc1nn2c(-c3ccncc3)nnc2c2ccccc12	.	i
O=C(O)CCCNC(=O)OCc1ccccc1	>57	i
COc1ccc(N2C(=O)CCC(C(=O)NCc3ccccn3)C2c2ccc(OC)c(OC)c2)cc1 (stereo not given)	>57	i
Cc1ccc(-c2noc(-c3ccccc3C(=O)NCC3CCCO3)n2)cc1 (stereo not given)	i	i
CC(C)(C)OC(=O)N[C@@H](Cc1ccccc1)c1nnc(S(=O)(=O)Cc2ccccc2)o1	>57	i
COc1ccc(N(CC(=O)NCc2cccs2)S(=O)(=O)c2c(C)n[nH]c2C)cc1	>57	i
CC(=O)N1CCN=C1SCc1ccc(F)cc1	.	i
COc1ccccc1NC1SC(=O)N(c2ccccc2)C1=O (stereo not given)	>57	i
C[C@H](C(=O)O)c1cccc(Oc2ccccc2)c1	.	i
CC(C)C[C@@H](NC(=O)OCC1c2ccccc2-c2ccccc21)C(=O)O	.	i
CCOC(=O)N1CCN(C(=O)COc2ccc(S(=O)(=O)NC3CCCCC3)cc2C)CC1	>57	i
CCOC(=O)CSC1=C(C#N)C(=O)NC(c2ccc(OC)c(OC)c2)S1 (stereo not given)	>26	.
N#Cc1ccc(CN2CCCC3(CCN(C(=O)c4cnccn4)CC3)C2)cc1	.	i

4 entries from above, with each value named:
> COc1ccc(N(CC(=O)NCc2cccs2)S(=O)(=O)c2c(C)n[nH]c2C)cc1
  PK Bst: >57
  YjeE inh: i
> CC(=O)N1CCN=C1SCc1ccc(F)cc1
  PK Bst: .
  YjeE inh: i
> COc1ccccc1NC1SC(=O)N(c2ccccc2)C1=O (stereo not given)
  PK Bst: >57
  YjeE inh: i
> C[C@H](C(=O)O)c1cccc(Oc2ccccc2)c1
  PK Bst: .
  YjeE inh: i

4 entries from above, in markdown.
| SMILES | PK Bst | YjeE inh |
| --- | --- | --- |
| COc1ccc2c(c1)N1CCN=C1N2C | >57 | i |
| O=C(Cn1cnc2ccccc2c1=O)Nc1ccc(-c2nnc3n2CCCCC3)cc1 | >57 | i |
| Cn1c(=O)c2[nH]c(CCNC(=O)c3ccccc3)nc2n(C)c1=O | . | i |
| CCN(CCNC(=O)Nc1ccc(Cl)cc1)c1ccccc1 | >57 | i |

Continued.
SMILES	PK Bst	YjeE inh
COC(=O)c1sc2nc(CN3CCOCC3)nc(N3CCOCC3)c2c1C	>57	i
COc1ccc2[nH]cc(CCNc3ccnc(-c4cccc(C#N)c4)n3)c2c1	.	i
Cc1cc(C)nc(SCc2nnc(SCC(=O)Nc3ccc(C)c(C)c3)o2)n1	>57	i
Cc1ccc(NS(=O)(=O)c2cc(C(=O)O)ccc2Cl)cc1	>57	i
CC(=O)C1(O)C(C)CC2C3CCC4CC(O)CCC4(C)C3=CCC21C (stereo not given)	.	i
COC(=O)c1cc(-c2c(C)oc3cc(OC)ccc3c2=O)c(C)o1	>57	i
O=C(O)C1C2C=CC(C2)C1C(=O)NC1CCN(Cc2ccccc2)CC1 (stereo not given)	>57	i
Cc1c(Br)c(C(F)(F)F)nn1CC(=O)N1CCCC1	.	i
O=C(Cn1cc2c(n1)CCCC2)NCCCN1CCCC1	.	i
CCCc1cc(=O)[nH]c(SCC(=O)OCc2ccccc2)n1	.	i
COc1ccc(CN2CCN(C(=O)c3cccs3)CC2)cc1Br	.	i
CC(CN1CCCC(C(N)=O)C1)c1ccccc1 (stereo not given)	.	i
CSc1cccc(NC(=O)CN(C)S(=O)(=O)c2ccc(F)cc2)c1	>57	i
O=C(O)c1cccc(CSc2nnc(Cc3ccccc3)o2)c1	i	i
c1ccc(/N=C2\N=C(Nc3ccccn3)c3ccccc32)nc1	.	i
COc1ccc(C(=O)CCN2CCCCCC2)cc1	>26	.
COc1ccc(CC(=O)Nc2cc(C)on2)cc1	>57	i
Cn1c(CCC(=O)Nc2ccc(N3CCOCC3)cc2)nc(=O)c2ccccc21	>57	i
COc1cc(NC2c3ccccc3C(=O)N2c2ccc(C)cn2)cc(OC)c1OC (stereo not given)	.	i
CC1(C)OCC(CSC2=C(SCC3COC(C)(C)O3)C(=O)c3ncccc3C2=O)O1 (stereo not given)	.	?
N#CCCn1c(=O)cnc2cnc(Oc3cccc(Cl)c3)nc21	.	i
Cc1cc(C)n(CC2CC(=O)N(c3ccc(F)c(Cl)c3)C2=O)n1 (stereo not given)	>11	.
Cn1cc(S(=O)(=O)Nc2ccc(F)cc2F)c(=O)n(C)c1=O	.	i
CCOC(=O)N1CCC(NC(=O)c2cc(C)c3c(C)nn(-c4ccccc4)c3n2)CC1	>57	i
CCOC(=O)c1c(NS(=O)(=O)c2cccc(OC)c2)sc2c1CCC2	>57	i

New compounds follow:
SMILES	PK Bst	YjeE inh
O=C(NC12CC3CC(CC(C3)C1)C2)C1=COCCO1	>57	i
CC(C)NCC(O)COc1c(F)cc(Br)cc1F (stereo not given)	>57	i
Nc1nc(-c2ccc(Cl)cc2)nn1C(=O)c1cccnc1	i	i
Cc1ccc2c(c1)NC(=O)C(CC(=O)O)O2 (stereo not given)	.	i
O=C(c1cc(-c2ccncc2)nc2ccccc12)N1CCN(c2ccc(N3CCOCC3)nn2)CC1	>57	i
COc1cccc(NC(=O)CN(c2cccc(C(F)(F)F)c2)S(C)(=O)=O)c1	.	i
Cc1ccnc(N2CCN(c3cc(C)c(C#N)c4nc5ccccc5n34)CC2)c1	>26	.
O=C1C2C3CCCC3=C3CCCC3C2C(=O)N1c1ccccc1 (stereo not given)	.	i
CC1=C(C(=O)NC(C)c2ccc3c(c2)OCCO3)C2(CCC(C)CC2)OC1=O (stereo not given)	.	i
O=c1onc2n1-c1cc(Br)ccc1OC2	.	i
CCn1cnc2sc(C(=O)N(Cc3ccc(N(C)C)cc3)Cc3ccco3)c(C)c2c1=O	>57	i
Cn1c(=O)c2c(-c3ccccc3)n(-c3ccccc3O)cc2n(C)c1=O	>57	i
O=C(c1ccco1)N1CCN(C(c2ccccc2Cl)c2nnnn2Cc2ccco2)CC1 (stereo not given)	>57	i
CC(=O)N1CCC2(CC1)CC(=O)c1cc(OCC(=O)NCc3ccc(C)cc3)ccc1O2	>57	i
Cc1cc(NCCN2CCCCC2)n2c(nc3ccccc32)c1C#N	>57	i
N#Cc1cc(-c2ccccc2)oc1NC(=O)c1ccco1	.	i
O=C(CCN1C(=O)C2C3C=CC(C3)C2C1=O)Nc1ccc2c(c1)OCO2 (stereo not given)	>57	i
COc1ccc(C)cc1S(=O)(=O)Nc1ccccc1C	>57	i
COc1ccc(Cl)cc1C(=O)CSc1nc(N)cc(N)n1	.	i
O=C1c2ccc(Oc3ccc4c(c3)C(=O)N(CCCCO)C4=O)cc2C(=O)N1CCCCO	>57	i
CCOc1ccc(-n2cnnn2)cc1S(=O)(=O)N1CCCCC1	>57	i
O=C(O)CSCC(=O)NCc1ccccc1	>57	i
Cc1cc(C)cc(NC(=O)CSc2nnc(Cc3cccn3C)n2-c2ccc(F)cc2)c1	.	i
c1cc(-c2nc3cc(Cc4ccc5oc(-c6ccncc6)nc5c4)ccc3o2)ccn1	>57	i
Cc1nc(N2CCN(C(=O)c3ccco3)CC2)c2oc3ccccc3c2n1	>57	i

A few values from the entries so far:
Entry for CC(C)NCC(O)COc1c(F)cc(Br)cc1F (stereo not given) under PK Bst: >57
Entry for CCOc1ccc(-n2cnnn2)cc1S(=O)(=O)N1CCCCC1 under PK Bst: >57
Entry for O=C(O)CSCC(=O)NCc1ccccc1 under PK Bst: >57

Next results follow:
SMILES	PK Bst	YjeE inh
CCOc1ccc(N(CC(=O)Nc2ccc(C)cc2)S(=O)(=O)c2c(C)noc2C)cc1	.	i
COc1ccc(-c2[nH]nc3c2C(c2ccccc2OC(=O)N2CCOCC2)C(C#N)=C(N)O3)cc1 (stereo not given)	>57	i
O=C(CSc1nncc2ccccc12)N1CCOCC1	>57	i
O=C(c1csnn1)N1CCC[C@@]2(CCN(Cc3cc(C(F)(F)F)cc(C(F)(F)F)c3)C2)C1	.	i
COC(=O)c1ccc(C(=O)OC)c(NC(=O)Nc2ccc3c(c2)OCO3)c1	>57	i
CN1CCN(C(=O)C2CC(c3c(F)cccc3Cl)=NO2)CC1 (stereo not given)	>57	i
CS(=O)(=O)N1CCC[C@@]2(CCN(C(=O)Nc3ccccc3)C2)C1	.	i
CCC(=O)NC1(C(F)(F)F)C(=O)NC(C)=C1C#N (stereo not given)	>57	i
Cc1ccc(NC(=O)CS(=O)CC(=O)N(C2CCCC2)C(C)C(=O)NC2CCCCC2)cc1 (stereo not given)	>57	i
CC1CCC(n2c(=S)[nH]c3ccccc3c2=O)CC1 (stereo not given)	.	i
CSc1cc(C)nc(NC(C)=O)n1	>57	i
CS(=O)(=O)N1CCC(C(=O)Nc2ccc(Oc3ccccc3)cc2)CC1	>57	i
CCOC(=O)C1=C(C)N=c2s/c(=C3\C(=O)Nc4ccccc43)c(=O)n2C1c1ccc2c(c1)OCO2 (stereo not given)	>57	i
O=C(CCCOc1ccc(Cl)cc1)Nc1nncs1	>57	i
COc1cc2c(cc1OC)C1=C(C#N)CN(C3CCCCC3)CN1CC2	.	i
CCCCn1cnc2c(c1=O)c1nc3ccccc3nc1n2Cc1ccc2c(c1)OCO2	>26	.
CCCN1C(=O)SC(CC(=O)Nc2ccccc2)C1=O (stereo not given)	>57	i
CC(C)(CC(=O)N1CCN(c2ccc(Cl)cc2)CC1)CC1=NS(=O)(=O)c2ccccc2N1	>57	i
C=CCn1c(/N=C/c2ccc(N(C)C)cc2)nc2ccccc21	1.4*	i
O=C(N1CCN(Cc2ccccc2)CC1)C12CC3CC(CC(C3)C1)C2	>57	i
O=C(NCc1ccc(Cl)cc1)c1cc(-c2ccco2)on1	>57	i

Not all compounds are listed; the hit share may differ from the screen's.
